Bioassay records: PubChem, Broad Institute
NOMO-1 viab: STK33 inhibitor candidate reducing NOMO-1 cell viability; AID 2330; NOMO-1 AML viability, CellTiter-Glo luminescence, 72 h; inhibition, % (concentration not given with the values); 37,000 compounds, 7.5% hits;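 active = most replicates above 80%; inconclusive = exactly half above 80%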;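 also: wells of about 30 µL received 25 nL stock; 0% = median of vehicle wells and 100% = reference inhibitor level; the first replicate is given; inactives centre near 10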
An asterisk follows results filed as active; ? = inconclusive. This is a subset; the hit share may differ from the screen's.

SMILES | NOMO-1 viab
CC1CCN(C(=O)c2cc(Cl)ccc2Cl)CC1 | 22.3
Cc1ccc(C2=NNC(=O)C(c3cn(CCC#N)c4ccccc34)C2)cc1 (stereo unspecified) | 20.8
COc1ccc(NC(=O)N(C)C[C@@H]2Oc3ccc(NC(=O)Nc4ccc5c(c4)OCO5)cc3C(=O)N([C@@H](C)CO)C[C@H]2C)cc1 | -9.1
C[C@@H]1CN([C@H](C)CO)C(=O)c2cccc(NC(=O)Nc3cccc4ccccc34)c2O[C@@H]1CN(C)Cc1ccc(-c2ccccc2)cc1 | 106.9*
Cc1noc(C)c1S(=O)(=O)Nc1ccc2c(c1)C(=O)N([C@@H](C)CO)C[C@H](C)[C@@H](CN(C)C)O2 | 2.5
COc1ccc(S(=O)(=O)Nc2ccc3c(c2)C(=O)N([C@H](C)CO)C[C@H](C)[C@H](CN(C)Cc2ccc(C(=O)O)cc2)OCCCC[C@@H](C)O3)cc1 | 9.4
Cc1cc2ncn(CC(O)COc3ccc(N)cc3)c2cc1C (stereo unspecified) | 23.6
C[C@H](CO)N1C[C@H](C)[C@H](CN(C)C(=O)Nc2ccccc2)Oc2ccc(NS(=O)(=O)c3ccc(F)cc3)cc2CC1=O | -4.5
O=C(O)COc1ccc(S(=O)(=O)NC2CCCCC2)cc1Cl | -26.7
C[C@H](CO)N1C[C@H](C)[C@@H](CN(C)C(=O)Nc2ccc(C(F)(F)F)cc2)Oc2ccc(NS(=O)(=O)c3ccc(Cl)cc3)cc2C1=O | 12.4
C[C@H](CO)N1C[C@H](C)[C@H](CN(C)C(=O)Nc2ccc(F)cc2)Oc2ccc(NC(=O)NC3CCCCC3)cc2C1=O | 14.8
CCC1CCc2nc(SCC(=O)Nc3cccc(OC)c3)c(C#N)c(C(F)(F)F)c2C1 (stereo unspecified) | 13.2
COc1ccc(NC(=O)Nc2ccc3c(c2)CC(=O)N([C@@H](C)CO)C[C@H](C)[C@H](CN(C)C)O3)cc1 | -3.2
COc1ccc(N(C(=O)c2ccncc2)S(=O)(=O)c2ccc3c4c(cccc24)C(=O)N3C)cc1 | 46.6
C[C@@H]1CCCCO[C@@H](CN(C)C(=O)Nc2ccc(F)cc2)[C@@H](C)CN([C@H](C)CO)C(=O)c2cc(NC(=O)CCCN(C)C)ccc2O1 | -20.9
N#Cc1c(C(F)(F)F)cc(-c2cccs2)nc1SCC(=O)Nc1c(F)cccc1F | 16.4
Cc1ccc(C)c(S(=O)(=O)NCc2cccnc2)c1 | 20.4
C[C@H]1CN([C@@H](C)CO)C(=O)c2cccc(NC(=O)C3CCCCC3)c2O[C@@H]1CN(C)Cc1ccncc1 | -4.9
COc1ccc(NC(=O)Nc2cccc3c2O[C@@H](CN(C)C(=O)Nc2c(C)noc2C)[C@@H](C)CN([C@H](C)CO)C3=O)cc1 | 18.3
CSc1ccccc1NC(=O)CN(c1cccc([N+](=O)[O-])c1)S(C)(=O)=O | 6.4
NC(=O)c1nnc2cc(-c3ccccc3)nn2c1N | 5.0
C[C@@H]1CN([C@H](C)CO)C(=O)Cc2cc(NC(=O)Cc3cn(C)c4ccccc34)ccc2O[C@@H]1CN(C)CC1CCCCC1 | 67.4
C=CCN1C(=O)C2(C(C#N)=C(N)Oc3c2c(=O)oc2ccccc32)c2ccccc21 (stereo unspecified) | -11.6
C[C@H]1CN([C@@H](C)CO)C(=O)c2cccc(N(C)C)c2O[C@@H]1CN(C)Cc1ccc(C(F)(F)F)cc1 | 16.2
CC(C)NC(=O)Nc1cccc2c1O[C@@H](CN(C)C(=O)Nc1ccc(F)cc1)[C@@H](C)CN([C@H](C)CO)C2=O | 12.8
CCn1c(SCC(=O)N2c3ccccc3CCc3ccccc32)nnc1-c1ccco1 | 2.2
COc1ccc(NC(=O)Nc2ccc3c(c2)C(=O)N([C@H](C)CO)C[C@H](C)[C@H](CN(C)S(=O)(=O)c2ccc(Cl)cc2)O3)cc1 | 61.9
C[C@H](CO)N1C[C@H](C)[C@H](CN(C)C(=O)NC2CCCCC2)Oc2ccc(NC(=O)CCCCCC(=O)Nc3ccccc3N)cc2C1=O | -9.6
CC(NS(=O)(=O)c1ccc(Br)cc1)C(=O)Nc1ccccc1 (stereo unspecified) | -4.8
CC(C)NC(=O)Nc1ccc2c(c1)C(=O)N([C@@H](C)CO)C[C@H](C)[C@H](CN(C)C(=O)Nc1cccc3ccccc13)O2 | 5.8
COc1ccc(Cl)cc1NC(=O)CN(c1cc(Cl)c(Cl)cc1Cl)S(C)(=O)=O | 38.6
Cc1cc2ncn(CC(O)COc3ccc4cc(Br)ccc4c3)c2cc1C (stereo unspecified) | ?
COc1c(OC)c(O)c2c(=O)cc(-c3ccc(O)cc3)oc2c1OC | 114.9*
CSc1scc2c1-c1nn(C(=O)c3cccc(C(F)(F)F)c3)cc1CC2 | 21.0
C[C@@H]1CN([C@H](C)CO)C(=O)Cc2cc(NS(C)(=O)=O)ccc2O[C@H]1CN(C)CC1CCCCC1 | -11.8
COC(=O)c1sccc1NC(=O)Cn1nnc(-c2ccc(C)cc2)n1 | -13.5

3 entries from above, sorted by formula weight, smallest number first:
SMILES | NOMO-1 viab
CC(C)NC(=O)Nc1cccc2c1O[C@@H](CN(C)C(=O)Nc1ccc(F)cc1)[C@@H](C)CN([C@H](C)CO)C2=O | 12.8
C[C@H](CO)N1C[C@H](C)[C@H](CN(C)C(=O)Nc2ccccc2)Oc2ccc(NS(=O)(=O)c3ccc(F)cc3)cc2CC1=O | -4.5
COc1ccc(NC(=O)N(C)C[C@@H]2Oc3ccc(NC(=O)Nc4ccc5c(c4)OCO5)cc3C(=O)N([C@@H](C)CO)C[C@H]2C)cc1 | -9.1

(listing goes on)
SMILES | NOMO-1 viab
C[C@@H]1CN([C@H](C)CO)C(=O)Cc2cc(NS(C)(=O)=O)ccc2O[C@@H]1CN(C)Cc1ccc(-c2ccccc2)cc1 | 18.1
C[C@@H]1CN([C@H](C)CO)C(=O)c2cc(NS(=O)(=O)c3ccccc3)ccc2O[C@@H]1CN(C)Cc1ccc(C(=O)O)cc1 | -6.3
O=C(CSc1nc(N2CCCCC2)nc(N2CCCCC2)n1)Nc1ccc([N+](=O)[O-])cc1 | 19.9
C[C@H](CO)N1C[C@H](C)[C@@H](CN(C)S(=O)(=O)c2ccc(Cl)cc2)Oc2ccc(NC(=O)Nc3ccc4c(c3)OCO4)cc2C1=O | 0.3
CN1c2ccccc2C(=O)/C(=C\Nc2cc(C(F)(F)F)cc(C(F)(F)F)c2)S1(=O)=O | 14.1
Cc1ccc2c(C)nc(N/C(N)=N/S(=O)(=O)c3ccccc3)nc2c1 | -3.4
COc1cc(O)c2c(c1C)C(C)C(O)(CO)OC2=O (stereo unspecified) | -0.8
C[C@H](CO)N1C[C@H](C)[C@@H](CN(C)Cc2ccccc2)Oc2ccc(NC(=O)C3CC3)cc2C1=O | -11.2
C[C@H](CO)N1C[C@H](C)[C@@H](CN(C)S(=O)(=O)c2cccs2)Oc2c(NC(=O)Nc3ccc4c(c3)OCO4)cccc2C1=O | 14.7
C[C@@H]1CCCCO[C@H](CN(C)Cc2ccncc2)[C@@H](C)CN([C@H](C)CO)C(=O)c2cc(NC(=O)c3ccncc3)ccc2O1 | 6.2
O=C(Nc1ccccc1[N+](=O)[O-])c1cccc(S(=O)(=O)Nc2ccc(I)cc2)c1 | 15.9
Cc1c(CC(=O)O)c(=O)oc2c(C)c(OC(C)C(=O)O)ccc12 (stereo unspecified) | 11.2
Cc1cccc(NC(=O)COc2ccc(S(=O)(=O)N3CCCCC3)cc2Cl)c1C | 48.7
COC(=O)c1ccccc1NC(=O)C(C)Oc1ccccc1 (stereo unspecified) | 23.8
CN(C)/C=N/c1c(C#N)cnn1-c1ncnc2sc3c(c12)CCC3 | 9.2
Cc1ccc(S(=O)(=O)Nc2cccc3c2O[C@@H](CN(C)Cc2ccc(-c4ccccc4)cc2)[C@@H](C)CN([C@@H](C)CO)C3=O)cc1 | 91.3*
COc1cccc(N(CC(=O)Nc2cccc(Cl)c2C)S(C)(=O)=O)c1 | 6.2
COc1ccc(NC(=O)N(C)C[C@@H]2Oc3ccc(N(C)C)cc3CC(=O)N([C@H](C)CO)C[C@@H]2C)cc1 | 1.9
CC(C)NC(=O)N(C)C[C@@H]1Oc2ccc(NC(=O)Cn3cnnn3)cc2CC(=O)N([C@H](C)CO)C[C@@H]1C | 14.4
CNC[C@@H]1Oc2ccc(N(C)C)cc2CC(=O)N([C@H](C)CO)C[C@H]1C | 24.2
COC(=O)c1ccc(NC(=O)C(C)N(c2ccc(C)cc2)S(C)(=O)=O)cc1 (stereo unspecified) | 16.7
COc1ccc(N2C(=O)CC(SCC(=O)Nc3cccc(Br)c3)C2=O)cc1 (stereo unspecified) | 17.9
Cc1ccc(C)c(NC(=O)CN(c2cccc(F)c2)S(C)(=O)=O)c1 | 13.8
C[C@@H]1CCCCO[C@H](CN(C)C(=O)CCCN(C)C)[C@@H](C)CN([C@H](C)CO)C(=O)c2cc(NS(=O)(=O)c3ccccc3)ccc2O1 | 3.1
C[C@H](CO)N1C[C@H](C)[C@H](CN(C)CC2CCCCC2)Oc2ccc(NC(=O)Nc3ccccc3)cc2C1=O | 25.6
C[C@H]1CN([C@@H](C)CO)C(=O)Cc2cc(N(C)C)ccc2O[C@@H]1CN(C)C(=O)Nc1cccc2ccccc12 | 2.7
CCc1c(C)nc(SCC(=O)Nc2ccc(Cl)cc2)[nH]c1=O | 3.9
Cc1ccc2cc(S(=O)(=O)NCc3ccco3)ccc2c1 | 4.1
COc1cc(OC)cc(-c2nnc(SCC(=O)Nc3ccccc3)o2)c1 | -23.1
COc1ccc(C2=Nc3ccccc3SC(c3ccccc3)C2)cc1 (stereo unspecified) | 113.4*
C[C@@H]1CN([C@H](C)CO)C(=O)c2cc(NC(=O)CCC(F)(F)F)ccc2O[C@@H]1CN(C)C | -12.1
CCN1CCN(C(=O)C(C)N(c2ccccc2)S(C)(=O)=O)CC1 (stereo unspecified) | -16.8
C[C@@H]1CN([C@@H](C)CO)C(=O)Cc2cc(NC(=O)Nc3cccc4ccccc34)ccc2O[C@@H]1CN(C)Cc1ccccc1 | 45.4
COc1ccccc1-c1nc(SCC(=O)O)n[nH]1 | 8.1
CC1OC(OC2C(OC3C(O[C@H]4CC[C@@]5(C)C(CC[C@]6(C)C5CC=C5[C@@H]7CC(C)(C)C[C@@H](O)[C@]7(C)CC[C@]56C)C4(C)C)OC(C(=O)O)C(O)C3O)OC(CO)C(O)C2O)C(O)C(O)C1O (stereo partly specified) | 25.4
C[C@@H]1CN([C@@H](C)CO)C(=O)Cc2cc(NC(=O)Cc3cn(C)c4ccccc34)ccc2O[C@@H]1CN(C)C(=O)Nc1ccccc1 | 4.5
CC(=O)c1ccc(NC(=O)COc2ccccc2C(N)=O)cc1 | 12.1
COc1ccc(C(=O)CSc2n[nH]c(-c3ccccc3)n2)cc1OC | -11.2
CC(C)(C)NC(=S)NCC1CC1 | 23.0
C[C@H]1CN([C@@H](C)CO)C(=O)c2cc(NC(=O)Nc3ccc(F)cc3)ccc2O[C@H]1CN(C)Cc1ccc(Cl)c(Cl)c1 | 99.4*
C[C@H]1CN([C@@H](C)CO)C(=O)c2cc(NC(=O)CCN3CCOCC3)ccc2O[C@H]1CN(C)C(=O)Nc1ccc(F)cc1 | -2.9
C[C@@H]1CN([C@H](C)CO)C(=O)Cc2cc(NS(=O)(=O)c3ccccc3)ccc2O[C@H]1CN(C)Cc1ccccc1 | 20.3
COc1ccc(C)cc1S(=O)(=O)N(C)CC(=O)N1CCCCC1 | 4.5
C[C@@H]1CCCCO[C@H](CN(C)C(=O)CCCN(C)C)[C@@H](C)CN([C@H](C)CO)C(=O)c2cc(NC(=O)Nc3ccc4c(c3)OCO4)ccc2O1 | 2.3
C[C@@H]1CN([C@H](C)CO)C(=O)Cc2cc(NC(=O)CCCN(C)C)ccc2O[C@H]1CN(C)CC1CCCCC1 | -5.0
COc1ccc(NC(=O)N(C)C[C@@H]2Oc3c(NS(=O)(=O)c4ccc(C)cc4)cccc3C(=O)N([C@@H](C)CO)C[C@H]2C)cc1 | 10.9
C[C@@H]1CN([C@H](C)CO)C(=O)c2cccc(N(C)C)c2O[C@@H]1CN(C)C(=O)NC1CCCCC1 | 5.9
CC(NS(=O)(=O)c1ccc(F)cc1)C(=O)Nc1ccc(Oc2ccccc2)cc1 (stereo unspecified) | 22.7
C[C@H]1CN([C@@H](C)CO)C(=O)c2cc(NC(=O)Nc3cccc4ccccc34)ccc2O[C@@H]1CN(C)S(C)(=O)=O | -6.7
Cc1cc(N(CC(=O)Nc2ccccc2Cl)S(C)(=O)=O)ccc1Br | 14.2
CCOc1ccc(C(=O)Nc2ccc(OCC(=O)O)cc2)cc1 | 20.0
C[C@H]1CN([C@@H](C)CO)C(=O)Cc2cc(NC(=O)C3CC3)ccc2O[C@H]1CN(C)S(=O)(=O)c1cn(C)cn1 | 4.0
COc1ccc(S(=O)(=O)N(C)C[C@@H]2Oc3c(NC(=O)Nc4ccc5c(c4)OCO5)cccc3C(=O)N([C@H](C)CO)C[C@H]2C)cc1 | 10.4

Filtered by structure, the entries above with a Cl atom
SMILES | NOMO-1 viab
CC1CCN(C(=O)c2cc(Cl)ccc2Cl)CC1 | 22.3
O=C(O)COc1ccc(S(=O)(=O)NC2CCCCC2)cc1Cl | -26.7
C[C@H](CO)N1C[C@H](C)[C@@H](CN(C)C(=O)Nc2ccc(C(F)(F)F)cc2)Oc2ccc(NS(=O)(=O)c3ccc(Cl)cc3)cc2C1=O | 12.4
COc1ccc(NC(=O)Nc2ccc3c(c2)C(=O)N([C@H](C)CO)C[C@H](C)[C@H](CN(C)S(=O)(=O)c2ccc(Cl)cc2)O3)cc1 | 61.9
COc1ccc(Cl)cc1NC(=O)CN(c1cc(Cl)c(Cl)cc1Cl)S(C)(=O)=O | 38.6
C[C@H](CO)N1C[C@H](C)[C@@H](CN(C)S(=O)(=O)c2ccc(Cl)cc2)Oc2ccc(NC(=O)Nc3ccc4c(c3)OCO4)cc2C1=O | 0.3
Cc1cccc(NC(=O)COc2ccc(S(=O)(=O)N3CCCCC3)cc2Cl)c1C | 48.7
COc1cccc(N(CC(=O)Nc2cccc(Cl)c2C)S(C)(=O)=O)c1 | 6.2
CCc1c(C)nc(SCC(=O)Nc2ccc(Cl)cc2)[nH]c1=O | 3.9
C[C@H]1CN([C@@H](C)CO)C(=O)c2cc(NC(=O)Nc3ccc(F)cc3)ccc2O[C@H]1CN(C)Cc1ccc(Cl)c(Cl)c1 | 99.4*
Cc1cc(N(CC(=O)Nc2ccccc2Cl)S(C)(=O)=O)ccc1Br | 14.2
